D2 agonist = activates the human D2 dopamine receptor. DiscoveRx PathHunter D2 beta-arrestin, luminescence, 90 min; 100% = 57 uM dopamine signal. hit rate 0.084% among 360,000. P14416. activation, % (no concentration beside the values). AID 624465; in the data active = activation above about 40%; inconclusive = about 15% to 40%; inactive = below about 15%; also: compound concentration not given in the record; the text of the record calls up to 30% inactive
Target sequence (P14416 whole entry, looked up): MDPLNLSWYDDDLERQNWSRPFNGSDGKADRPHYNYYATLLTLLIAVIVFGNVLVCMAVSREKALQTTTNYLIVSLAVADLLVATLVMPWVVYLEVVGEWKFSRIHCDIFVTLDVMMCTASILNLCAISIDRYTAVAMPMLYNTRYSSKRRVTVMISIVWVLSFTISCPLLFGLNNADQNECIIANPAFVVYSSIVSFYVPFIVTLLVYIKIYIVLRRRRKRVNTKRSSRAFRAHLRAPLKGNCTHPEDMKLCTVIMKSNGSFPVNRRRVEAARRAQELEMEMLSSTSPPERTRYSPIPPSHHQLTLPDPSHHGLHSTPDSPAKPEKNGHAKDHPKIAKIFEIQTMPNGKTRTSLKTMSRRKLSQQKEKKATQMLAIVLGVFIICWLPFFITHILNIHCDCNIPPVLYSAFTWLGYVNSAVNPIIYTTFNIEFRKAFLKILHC
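Agonist mode: compounds alone added to overnight-plated D2 PathHunter cells for 90 min at 37 C, with 57 uM final dopamine (EC100) defining full response. Beta-arrestin recruitment detected by chemiluminescent reagent, read after 1 h at ambient temperature.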
CtBP-E1A inh = CtBP/E1A binding inhibition. AlphaScreen GST-E1A/His-CtBP binding, 1536-well; active compounds read low; control for the full effect not named in the record. activity change, % (test concentration not listed). hit rate 0.49% among 340,000. AID 651724; in the data active means activity change below about -65%; inconclusive means about -30% to -65%; inactive means above about -30%; also: % is scaled to controls: 0 for no effect and ±100 for the full control effect
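Steps: dispense buffer (Tris pH 8.0, NaCl 300 mM, TCEP 1 mM, BSA, Tween 20); add 5X protein mix (GST-E1A, His-CtBP, 125 nM each); pin 23 nL compound; 2 h at 37 °C, dark; add 5X beads (50 ug/mL); 1 h; read.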
gsp ag = agonists of gsp mutant (McCune-Albright syndrome). gsp mutant cells, cAMP HTRF, 30 min; control for the full effect not named in the record. Potency, µM (titrated, usually from 76.9 µM), for the others: top-dose activation (cAMP increase), actives largely listed as activators. hit rate 0.13% among 340,000. AID 624287; active = well fitted activation curve with a large enough effect; inconclusive = small, poorly fitted or top-dose-only effect, or another doubt; inactive = no such curve, though single readings can be large or run the other way; cell line not stated here;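 also: phosphodiesterase inhibitor Ro 20-1724 added with compounds to block cAMP breakdown; potency is read from the fitted curve at half-maximal effect; nearly all actives have a fitted effect of over 60% in size; about a fifth of the inactives were tested at one dose only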
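Cells stably selected in G418 were plated at 2000/well, grown 16-24 hr, then given compounds in DMSO with the PDE inhibitor […] (300 uM solution added) for 30 min at 37C; cAMP was read by HTRF.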
gsp antag = antagonizes gsp, the McCune-Albright syndrome mutation; gsp-mutant cells, cAMP HTRF, 30 min; control for the full effect not named in the record; Potency, µM (doses to about 76.9 µM), for the others: at the top dose activity change, negative = inhibition, actives largely listed as inhibitors; hit rate 0.4% among 340,000; AID 624288; active = falling curve of any shape with a large fitted effect; inconclusive = falling curve, mostly with a smaller effect; inactive = flat or rising curve; cell line not stated here;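 also: intracellular cAMP measured with PDE inhibitor Ro 20-1724 present during compound exposure; potency is read from the fitted curve at half-maximal effect; % is scaled to controls: 0 for no effect and ±100 for the full control effect; nearly all actives have a fitted effect of over 65% in size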
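G418-selected cells were plated in DMEM/10% FBS for 16-24 h at 37C, then treated with compounds plus the PDE inhibitor […] (300 uM solution added) for 30 min at 37C. Intracellular cAMP was measured by HTRF after 30 min lysis at room temperature.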
D2 PAM = human D2 receptor positive allosteric modulation. DiscoveRx D2 beta-arrestin cells, luminescence, 90 min; 100% = 57 uM dopamine signal. potentiation, % (test concentration not listed). hit rate 0.23% among 360,000. P14416. AID 624464; active = potentiation of 50% or more; inconclusive = 30% to 50%; inactive = 30% or less;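 also: compound concentration not given in the record; tested on top of an EC20 dose of dopamine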
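D2 cells co-treated with compound plus 50 nM dopamine (EC20) for 90 min at 37 deg C to detect potentiation. Beta-arrestin recruitment was read as enzyme-fragment luminescence after 1 h at ambient temperature. Full response was set by 57 uM dopamine.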
Six1-Eya2 blk = Six1/Eya2 interaction inhibition; activity change, % (no concentration beside the values); hit rate 0.56% among 360,000; AID 651725; AlphaScreen GST-Six1/His-Eya2 binding, biochemical; active compounds read low; control for the full effect not named in the record; Q15475+O00167; in the data active = activity change below about -65%; inconclusive = about -30% to -65%; inactive = above about -30%; also: % is scaled to controls: 0 for no effect and ±100 for the full control effect
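Homogeneous AlphaScreen proximity assay pairing GST-Six1 with His-tagged Eya2 (added as 5X mix: 250 nM and 500 nM) in 50 mM Tris pH 8.0, 300 mM NaCl, 1 mM TCEP. Glutathione donor and nickel acceptor beads; 1 h, 37 °C, dark.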
Active calls of the source: *; [ ] = remark or other dose.

Screening Cc1c(C(=O)NCc2ccc([N+](=O)[O-])cc2)sc(=O)n1Cc1ccc(-c2ccccc2)cc1 returned D2 agonist 7.7, CtBP-E1A inh -25, D2 PAM -1 and Six1-Eya2 blk -4.
Nc1nonc1NN=C1CCCCC1 was read as D2 agonist -5.1, gsp ag 3%, gsp antag 13%, D2 PAM 1 and Six1-Eya2 blk 2.
Screening CCN1C[C@@H]2[C@@H]3C(=O)N(C)C(=O)[C@@H]3[C@](Cc3ccccc3)(C1=O)N2C(=O)c1ccc(Cl)cc1 returned D2 agonist -0.8, CtBP-E1A inh 7, gsp antag 7%, D2 PAM 5 and Six1-Eya2 blk 4.
For CCCCn1nc(NC(=O)CC(C)C)c2cc3cc(OC)ccc3nc21 the results were D2 agonist 8.0, CtBP-E1A inh -7, gsp ag -52%[inhibitor], gsp antag -4%, D2 PAM -10 and Six1-Eya2 blk -7.
For Cc1ccc(O)c(CNc2nc3ccccc3n2C(C)C)c1 the results were D2 agonist -1.3, CtBP-E1A inh -1, gsp ag 12%, gsp antag -22%, D2 PAM 4 and Six1-Eya2 blk 1.
`O=C(CCCNS(=O)(=O)c1cccc2nsnc12)N1CCCCC1` gave D2 agonist -3.1, CtBP-E1A inh 0, gsp ag -41%[inhibitor], gsp antag 10%, D2 PAM 6 and Six1-Eya2 blk 26.
Screening COc1ccc(/C(C)=N/NC(=O)c2ccc(CSc3nncn3C)cc2)cc1 returned D2 agonist -0.6, CtBP-E1A inh 7, gsp ag 28%[15.4 µM], gsp antag 9%, D2 PAM 3 and Six1-Eya2 blk 6.
For COc1cccc(-c2cnc3c(NC(C)=O)cc(-c4cccc(C(=O)N(C)C)c4)cn23)c1 the results were D2 agonist 5.0, CtBP-E1A inh -6, D2 PAM 10 and Six1-Eya2 blk -8.
Screening C/C(=N\Nc1nncc2ccccc12)c1ccc(C(C)(C)C)cc1 returned D2 agonist -3.2, CtBP-E1A inh 0, gsp ag 17%[15.4 µM], gsp antag -13%, D2 PAM -7 and Six1-Eya2 blk 0.
`CCN(C(=O)COC(=O)Cn1cnc2c1c(=O)n(C)c(=O)n2C)C1CCS(=O)(=O)C1` (stereo not drawn) gave D2 agonist -1.0, CtBP-E1A inh -11, gsp ag inconclusive, gsp antag 4%, D2 PAM -12 and Six1-Eya2 blk -5.
For CON/C=C(\C=Nc1ccccc1)c1ncc(C(F)(F)F)cc1Cl the results were D2 agonist -1.1, CtBP-E1A inh -14, gsp ag -8%, gsp antag -7%, D2 PAM -8 and Six1-Eya2 blk -15.
`CCOC(=O)C(=O)Nc1ccccc1C(=O)Nc1ccc(OC)cc1` gave D2 agonist 0.2, CtBP-E1A inh -2, gsp ag -58%[inhibitor], gsp antag 5%, D2 PAM -11 and Six1-Eya2 blk -1.
`COc1ccc(OC)c(NC(=O)COC(=O)CC2CCCCC2)c1` gave D2 agonist -3.0, CtBP-E1A inh -3, gsp ag -11%, gsp antag -21%, D2 PAM -7 and Six1-Eya2 blk -5.
O=C1CCCN1CCCN1C(=O)N[C@@H](Cc2ccccc2)C1=O was read as D2 agonist -0.1, CtBP-E1A inh 4, gsp ag -24%, gsp antag 14%, D2 PAM 1 and Six1-Eya2 blk 0.
For Cc1ccc(Nc2nc(N)c3ccccc3n2)cc1C the results were D2 agonist -2.6, gsp ag -11%, gsp antag -12%, D2 PAM -43 and Six1-Eya2 blk -2.
`O=C1CCc2cc(S(=O)(=O)N3CCCC3C(=O)NC3CCCCCCC3)ccc2N1` (stereo not drawn) gave D2 agonist -6.8, CtBP-E1A inh 29, gsp ag -30%[inhibitor], gsp antag -14%, D2 PAM -10 and Six1-Eya2 blk 2.
O=C(O)CSC(C(=O)Nc1ccc(C(F)(F)F)cc1)c1ccccc1 (stereo not drawn) was read as D2 agonist -1.7, CtBP-E1A inh 2, gsp ag 0%, gsp antag -2%, D2 PAM -8 and Six1-Eya2 blk 1.
For Nc1[nH]n(-c2ccccc2)c(=O)c1N=Nc1ccc2c(c1)OCCO2 the results were D2 agonist -0.7, CtBP-E1A inh 0, gsp ag 7%[15.4 µM], gsp antag -21%, D2 PAM -15 and Six1-Eya2 blk -69*.
Screening CC1=CC(C)(C)N(C)C(=O)N1c1ccc(Cl)cc1 returned D2 agonist -0.9, CtBP-E1A inh 1, gsp ag 11%, gsp antag -4%, D2 PAM 11 and Six1-Eya2 blk 9.
Screening CCCCC(=O)Nc1ccc(C(=O)N(CC)c2ccccc2C)cc1 returned D2 agonist -0.1, CtBP-E1A inh -18, gsp ag -13%[15.4 µM], D2 PAM -1 and Six1-Eya2 blk 10.
`CN(c1ccccc1)S(=O)(=O)c1ccc(C(=O)NCc2ccco2)cc1` gave D2 agonist 1.0, CtBP-E1A inh 5, gsp ag inconclusive, gsp antag -9%, D2 PAM -31 and Six1-Eya2 blk -1.
`COc1cc(Nc2ncnc(N)n2)cc(OC)c1` gave D2 agonist -1.0, CtBP-E1A inh -1, gsp ag 1%[15.4 µM], gsp antag -10%, D2 PAM -7 and Six1-Eya2 blk -3.
`CC(C)CC(=O)NCc1ccc2[nH]c3c(c2c1)CCCC3` gave D2 agonist 0.0, gsp ag -17%, gsp antag 4%, D2 PAM -11 and Six1-Eya2 blk -1.
`O=C(O)C1CC(=O)N(c2ccc(OCc3ccccc3Cl)cc2)C1` (stereo not drawn) gave D2 agonist -0.6, CtBP-E1A inh 4, gsp ag 0%[15.4 µM], gsp antag -2%, D2 PAM -6 and Six1-Eya2 blk 7.
COc1ccc2nc(Nc3nc(-c4cc5ccccc5oc4=O)cs3)sc2c1 was read as D2 agonist -4.8, CtBP-E1A inh 1, gsp ag 17%, gsp antag 9%, D2 PAM -17 and Six1-Eya2 blk -4.
For CN(C)c1ccc(-c2ccnc3c2CC(C)(C(=O)NCCc2ccccc2)O3)cc1 (stereo not drawn) the results were D2 agonist -3.1, CtBP-E1A inh inconclusive, D2 PAM -7 and Six1-Eya2 blk -27.
`CCC1(CC)SCCNC1=O` gave D2 agonist -5.1, CtBP-E1A inh 12, gsp ag -14%, gsp antag 9%, D2 PAM -10 and Six1-Eya2 blk 2.
Screening CCN(CC)C(=O)Cn1cc(C(=O)C(=O)NCCCn2ccnc2)c2ccccc21 returned D2 agonist -6.2, CtBP-E1A inh -4, gsp ag 1%[15.4 µM], gsp antag 0%, D2 PAM 1 and Six1-Eya2 blk 4.
`CN(C(=O)CSc1nnc(C(F)(F)F)n1N)C1CCS(=O)(=O)C1` (stereo not drawn) gave D2 agonist -1.7, CtBP-E1A inh 5, gsp ag -1%, gsp antag 11%, D2 PAM -7 and Six1-Eya2 blk 10.
Screening O=c1[nH]cnc2ncc(-c3ccc(O)cc3)nc12 returned D2 agonist -5.5, CtBP-E1A inh inconclusive, gsp ag 2%[15.4 µM], gsp antag 21%, D2 PAM -1 and Six1-Eya2 blk inconclusive.
O=C(CCS(=O)(=O)Cc1ccccc1)NC1CCCCC1 was read as D2 agonist 0.0, CtBP-E1A inh 5, gsp ag 13%, gsp antag 3%, D2 PAM -3 and Six1-Eya2 blk 1.
`O=C(Nn1c(-c2ccccc2)nc2ccccc2c1=O)c1ccco1` gave D2 agonist 2.5, CtBP-E1A inh 8, gsp ag 24%, gsp antag -5%, D2 PAM -3 and Six1-Eya2 blk -1.
`Cc1ccc2[nH]cc(C(=O)CN3CCOCC3)c2c1` gave D2 agonist -1.2, CtBP-E1A inh 5, gsp ag -28%, gsp antag 6%, D2 PAM -15 and Six1-Eya2 blk -2.
For Cc1ccc(S(=O)(=O)N(Cc2cccnc2)Cc2cc3ccccc3[nH]c2=O)cc1 the results were D2 agonist -2.4, CtBP-E1A inh 5, gsp ag 19%, gsp antag -5%, D2 PAM 4 and Six1-Eya2 blk 0.
For O=C(CN1CCN(c2ncccn2)CC1)NCc1ccccc1 the results were D2 agonist 9.4, CtBP-E1A inh -1, gsp ag inconclusive, gsp antag -3%, D2 PAM -3 and Six1-Eya2 blk 4.
`O=C(Nc1cc(Cl)cc(Cl)c1)Nc1cnccn1` gave D2 agonist 2.4, CtBP-E1A inh 10, gsp ag -14%, gsp antag 9%, D2 PAM -6 and Six1-Eya2 blk -1.
Screening COCCNC(=O)/C(C#N)=C/c1ccc(N2CCOCC2)o1 returned D2 agonist -3.5, CtBP-E1A inh 11, gsp ag inconclusive, gsp antag inconclusive, D2 PAM -25 and Six1-Eya2 blk -3.
CCCCn1c(/N=C/c2cc(OC)ccc2O)nc2ccccc21 was read as D2 agonist 0.4, CtBP-E1A inh 1, gsp ag -35%[inhibitor], gsp antag -13%, D2 PAM -4 and Six1-Eya2 blk -2.
`COC(=O)c1ccc(NC(=O)c2ccccc2SC)cc1` gave D2 agonist -2.7, CtBP-E1A inh -2, gsp ag 3%, gsp antag -2%, D2 PAM -9 and Six1-Eya2 blk 0.
Screening CC1CCN(C(C(=O)O)c2ccccc2)CC1 (stereo not drawn) returned D2 agonist -11, CtBP-E1A inh 6, gsp ag -22%[15.4 µM], gsp antag 3%, D2 PAM 0 and Six1-Eya2 blk 5.
`CCOC(=O)C(C)C1(O)c2ccccc2-c2ncccc21` (stereo not drawn) gave D2 agonist -0.2, CtBP-E1A inh 10, gsp ag -2%, gsp antag 3%, D2 PAM 8 and Six1-Eya2 blk 2.
For COc1ccc(C(CNC(=O)c2cccc(S(=O)(=O)Nc3ccc(C)cc3)c2)N2CCOCC2)cc1 (stereo not drawn) the results were D2 agonist -2.9, CtBP-E1A inh 4, gsp ag -11%[15.4 µM], gsp antag -2%, D2 PAM 0 and Six1-Eya2 blk 6.
Screening CCCCC(=O)N1CCCC(c2nc3c(nnn3Cc3cc(C)ccc3C)c(=O)[nH]2)C1 (stereo not drawn) returned D2 agonist 0.2, CtBP-E1A inh -2, gsp ag 25%, gsp antag -7%, D2 PAM -7 and Six1-Eya2 blk -2.
For CC(Oc1ccccc1)C(=O)Nc1ccc(S(=O)(=O)NCC2CCCO2)cc1 (stereo not drawn) the results were D2 agonist 0.1, CtBP-E1A inh 8, gsp ag -14%, gsp antag -5%, D2 PAM 1 and Six1-Eya2 blk 5.
For Cc1ccc(C)c(OCCC(=O)OCC(=O)NC(=O)NCc2ccccc2)c1 the results were D2 agonist -2.9, CtBP-E1A inh 7, gsp ag 13%[15.4 µM], gsp antag 5%, D2 PAM 0 and Six1-Eya2 blk -1.
`COC(=O)c1c(NC(=O)CN(C)CC(=O)Nc2ccc(C)cc2)sc2c1CCC(C)C2` (stereo not drawn) gave D2 agonist -2.4, CtBP-E1A inh 5, gsp ag 5%, gsp antag 10%, D2 PAM -2 and Six1-Eya2 blk -4.
`O=C(NC(=S)Nc1ccccc1)c1ccc(Br)o1` gave D2 agonist -6.4, gsp ag -29%, gsp antag -8%, D2 PAM -9 and Six1-Eya2 blk 2.

Screening results from PubChem BioAssay.

No enrichment for hits; 1.4% or so of the library scored in one or more.
